From PubChem
HSV augment – HSV replication enhancement. AID 1956. HSV replication augmentation in cells, fold increase. maximum fold increase. hit rate 0.005% among 220,000;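 active = peak rise of 1.5-fold or more in the series; tested in PC3 cells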;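 note: first round at 10 µM; read as green reporter fluorescence; hits show the peak of a series up to 25 µM; 1 = signal of infected wells without compound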
GALR2 ag – GALR2 (human) receptor agonism; activation, %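 (tested at 5 µM)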; hit rate 0.48% among 140,000; GALR2-expressing cells, agonist activation read-out; O43603; AID 803;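 active = above mean plus 3 SD of all compounds, about 5% in these data, not always enough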;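 note: 0% = vehicle buffer wells and 100% = reference agonist at full effect; tested in CHO reporter cells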
INS promoter inh – TRM-6 insulin promoter activity inhibition. AID 1273. hit rate 0.9% among 130,000. inhibition, % at 2 µM. TRM-6 cells (human fetal islet line), insulin promoter-eGFP reporter, imaging; reporter expression induced with tamoxifen;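 active = inhibition above the mean plus 3 SD, with well images judged a real hit on visual review, cut at about 60% in these data, passing the limit was not always enough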
PKD1 kinase inh – blocks activity of human protein kinase D1 | PKD1 kinase fluorescence polarization assay | inhibition, %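 (about 10 µM by stock and volumes)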 | hit rate 0.056% among 200,000;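 active = inhibition of 50% or more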;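 note: controls were vehicle for no effect and a reference inhibitor for full effect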
Target sequence (Q15139 whole entry, looked up): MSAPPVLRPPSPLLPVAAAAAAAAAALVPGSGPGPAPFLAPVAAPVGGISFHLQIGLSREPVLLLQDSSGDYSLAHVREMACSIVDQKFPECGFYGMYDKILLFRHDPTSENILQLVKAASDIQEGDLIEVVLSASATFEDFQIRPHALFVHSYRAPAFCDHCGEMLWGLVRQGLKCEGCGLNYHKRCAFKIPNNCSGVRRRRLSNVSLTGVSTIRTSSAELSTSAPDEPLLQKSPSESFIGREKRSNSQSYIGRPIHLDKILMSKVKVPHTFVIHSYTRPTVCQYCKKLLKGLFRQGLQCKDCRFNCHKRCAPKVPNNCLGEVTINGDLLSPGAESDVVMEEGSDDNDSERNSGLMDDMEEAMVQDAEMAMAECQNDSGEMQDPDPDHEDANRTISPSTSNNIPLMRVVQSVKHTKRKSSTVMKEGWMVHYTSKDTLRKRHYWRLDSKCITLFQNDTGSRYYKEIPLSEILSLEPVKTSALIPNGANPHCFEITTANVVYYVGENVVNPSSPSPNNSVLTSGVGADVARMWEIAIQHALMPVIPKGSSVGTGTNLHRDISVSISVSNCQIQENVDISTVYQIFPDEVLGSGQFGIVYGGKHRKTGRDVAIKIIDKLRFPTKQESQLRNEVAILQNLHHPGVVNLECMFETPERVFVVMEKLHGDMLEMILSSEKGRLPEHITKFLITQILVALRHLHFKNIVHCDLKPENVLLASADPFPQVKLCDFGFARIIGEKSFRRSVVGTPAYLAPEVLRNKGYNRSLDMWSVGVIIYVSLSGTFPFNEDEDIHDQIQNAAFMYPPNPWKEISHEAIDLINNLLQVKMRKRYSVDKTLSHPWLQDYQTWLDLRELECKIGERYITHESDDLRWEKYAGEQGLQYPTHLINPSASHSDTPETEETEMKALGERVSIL
RGS16-Gao HTS – modulates binding between human RGS16 and Galphao. hit rate 0.38% among 220,000. bead-based flow cytometry RGS16-Galphao binding, fluorescence; actives lie on both sides. O15492+P09471. binding response (% of control), % at 10 µM;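 active = below 25% or above 175%, edge rows of some plates excepted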;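 note: Galphao activated by GDP with aluminum fluoride before binding; 100% = wells without compound and 0% = beads without RGS; some results beyond the cut were filed as inactive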
INS promoter inh cell count – recorded beside INS promoter inh, whose call it bears; normalized cell count, %; measured here: cell count, toxicity; reference of the scale not given here;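 cells exposed to compound for 48 h; stained nuclei by imaging scaled within each plate; lower means fewer cells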
HSV augment primary fold – further read-out of HSV augment, marked with its call; fold increase; compound at 10 µM; measured here: primary screen fold increase 10 uM; tested in PC3 cells;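 GFP signal in the first replicate; 1 = infected wells without compound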
Numbers without * were called inactive; i = inactive; . = not tested or not shown. An unsorted share of the library. About 1.1% of those tested had a hit in this group.

canonical_smiles	INS promoter inh	PKD1 kinase inh	GALR2 ag	HSV augment	RGS16-Gao HTS	INS promoter inh cell count	HSV augment primary fold
NC(=O)C1CCN(C2=C(Cl)C(=O)c3ccccc3C2=O)CC1	7	-3	0.1	i	79	100	0.63
COc1ccc(-c2cc(=O)oc3cc(OC(=O)C4CCCCC4)ccc23)cc1	31	-2	0.1	i	114	84	0.92
O=C(NNc1nc2ccccc2s1)Nc1ccc(F)cc1	.	.	.	i	98	.	1.1
COc1ccc(-c2nsc(SCC(=O)Nc3cc(C)on3)n2)cc1	-2	-8	-1.2	i	93	131	0.85
C[C@H](CO)NC(=O)[C@H](C)[C@@H]1C[C@@]1(C)[C@@H](NC(=O)OCc1ccccc1)c1ccccc1	-10	-7	-0.9	i	102	106	0.76
COc1ccc2ccccc2c1CN1CCCC(CO)C1 (stereo unspecified)	13	0	-1.3	i	102	98	0.86
CCc1cc(/C(Cc2cscn2)=N\O)c(O)cc1O	.	2	-0.9	i	105	.	0.95
CCN(CC)S(=O)(=O)c1ccc(N/N=C(\C)c2ccc3c(c2)OCO3)c([N+](=O)[O-])c1	-28	-3	-0.2	i	100	75	0.75
COCCNC(=O)c1cccc(Nc2nc(-c3ccccc3)c3cc(Cl)ccc3n2)c1	.	6	2.0	i	106	.	0.91
Nc1nc(CN2CCN(C(c3ccccc3)c3ccccc3)CC2)nc(Nc2ccccc2)n1	.	.	.	i	96	.	0.84
CN(CC(=O)NCc1ccncc1)S(=O)(=O)c1ccccc1	-19	3	-1.4	i	118	87	0.8
Fc1c(F)c(C(F)(F)F)c(F)c(F)c1N/N=C\c1cccs1	-46	2	31*	i	114	73	0.98

The listing continues:
canonical_smiles	INS promoter inh	PKD1 kinase inh	GALR2 ag	HSV augment	RGS16-Gao HTS	INS promoter inh cell count	HSV augment primary fold
COc1ccccc1N1CC(C(=O)Nc2nnc(SCc3ccccn3)s2)CC1=O (stereo unspecified)	.	1	-1.9	i	100	.	1
Cc1csc2c(N3CCN(S(=O)(=O)c4ccc(Cl)cc4)CC3)ncnc12	.	.	.	i	100	.	1.1
COC(=O)/C(=C\c1cc(OC)c(OC)c(OC)c1)c1nc2ccccc2[nH]1	.	1	.	i	98	.	0.76
CCN(CC)CCOC(=O)c1cccc(Cl)c1	.	5	-1.1	i	101	.	1
CCCn1c(SCC(=O)N2CCN(C(=O)c3ccco3)CC2)nc2ccccc2c1=O	33	-2	.	i	110	100	0.98
O=C(COC(=O)c1ccc(Br)c(S(=O)(=O)N2CCOCC2)c1)NCC1CCCO1 (stereo unspecified)	.	5	-0.5	i	102	.	0.9
C/C(CCN1CCc2nc(-c3ccccc3)c(-c3ccccc3)cc2C1)=N\O[C@H](C)c1cn([C@H](CO)Cc2ccccc2)nn1	-45	-3	-0.8	.	101	80	.
Brc1c(CSc2nncn2-c2ccccc2)nc2ncccn12	.	0	-0.6	i	98	.	1.1
Cc1cc(NC(=O)CCN2C(=O)/C(=C\c3ccccc3)SC2=S)no1	.	.	.	i	98	.	1.1
Cc1ccc(S(=O)(=O)N2CCCC2C(=O)NCCc2ccccc2)cc1 (stereo unspecified)	.	-8	.	i	102	.	1
Cc1ccccc1C(=O)NCc1nnc(SCC(=O)N2CCN(c3ccccc3)CC2)n1C	7	-6	-1.4	i	103	100	0.92
COc1cc(C(c2sc3nc(C)nn3c2O)N2CCc3ccccc3C2)cc(OC)c1OC (stereo unspecified)	0	5	-2.0	i	101	116	0.97

Later entries.
canonical_smiles	INS promoter inh	PKD1 kinase inh	GALR2 ag	HSV augment	RGS16-Gao HTS	INS promoter inh cell count	HSV augment primary fold
O=C(c1c(F)c(F)c(F)c(F)c1F)N(Cc1ccccc1)Cc1ccccc1	-21	-6	-1.0	i	104	141	1
CC1(C)OC(c2ccccc2)=C/C(=C/C=Nc2ccccc2)O1	-357	-2	-2.4	i	89	68	1.1
Cc1ccc(S(=O)(=O)c2c(C)nn(C(C)(C)C)c2OC(=O)c2ccco2)cc1	-29	-3	-0.8	i	100	137	0.75
CCOC(=O)N1CCN(C(=S)NC(=O)c2ccnn2C)CC1	16	-2	-0.8	i	103	155	0.87
COc1ccc(C(=O)/C=C/N(C)C)cc1	26	-11	-3.5	i	104	102	1.1
CCCCCN(C(=O)CCCSc1nncs1)c1c(N)n(CCCC)c(=O)[nH]c1=O	.	3	.	i	101	.	1
O=C(CCSc1nnc(-c2ccncc2)o1)Nc1ccccc1	36	0	-2.1	i	115	144	0.96
CCC(C)(C)NC(=O)C(c1cccc(OC)c1OC)N(CCC(C)C)C(=O)CCC(=O)Nc1cc(C)on1 (stereo unspecified)	.	-3	.	i	102	.	0.99
CCOc1ccc(Br)cc1S(=O)(=O)N1CCC(C(N)=O)CC1	.	5	.	i	115	.	0.94
COc1ccc(C(NC(=O)c2ccc(=O)[nH]c2)C(=O)Nc2ccc(C(C)C)cc2)cc1 (stereo unspecified)	.	2	.	i	102	.	1.1
Cc1ccc2nc(SCC(=O)N3CCOCC3)[nH]c2c1	12	-1	-3.8	i	101	76	0.94
CCCCCC(=O)Nc1cccc(C2=NOC3(C2)C[C@H](C(N)=O)N(C(=O)CC)C3)c1 (stereo partly specified)	.	.	.	i	100	.	1.2

Next section:
canonical_smiles	INS promoter inh	PKD1 kinase inh	GALR2 ag	HSV augment	RGS16-Gao HTS	INS promoter inh cell count	HSV augment primary fold
Cc1cc(N)c(-n2cc3c(=O)n(C)c(=O)n(C)c3c2)cc1C	64	11	-1.1	i	97	139	1.1
COc1ccc(Cn2nnnc2C(C(C)C)N2CCN(c3ccccc3OC)CC2)cc1 (stereo unspecified)	-61	-2	-1.6	i	102	96	0.91
C#C[C@]1(O)CC[C@H]2[C@@H]3CCc4cc(OC)ccc4[C@H]3CC[C@@]21C	5	-3	-0.2	i	101	88	0.79
COCc1cc(C)nc(Nc2cc(C)ccc2C)c1C#N	.	-18	-1.6	i	98	.	0.93
Cc1cc(C)c(NC(=O)CS(=O)CC(=O)NC2CCCc3ccccc32)c(C)c1 (stereo unspecified)	-32	-6	-0.1	i	93	110	0.87
CC(=O)Nc1ccc(S(=O)(=O)N(C)CCOCc2ccccc2)cc1	34	-6	-0.8	i	105	107	0.9
O=C(CSCc1ccccc1)N1CCN(Cc2ccc3c(c2)OCO3)CC1	30	-2	-1.7	i	.	118	0.73
CC1(c2nnc(-c3ccc(F)cc3)o2)CC(c2ccc([N+](=O)[O-])cc2)=NO1 (stereo unspecified)	.	.	.	i	106	.	0.78
Cc1oc(CC(C)C)cc1C(N)=O	7	-1	.	i	100	93	0.99
CCOC(=O)c1cnc(N2CCOCC2)[nH]c1=O	58	5	-0.4	i	115	140	0.98
O=C(NCCN1CCCC1)c1cccc(Cl)c1	.	-10	.	i	102	.	0.9
Cc1nc2cc(NS(=O)(=O)c3cccc(F)c3)ccc2s1	57	-6	.	i	102	131	1

Further structures
canonical_smiles	INS promoter inh	PKD1 kinase inh	GALR2 ag	HSV augment	RGS16-Gao HTS	INS promoter inh cell count	HSV augment primary fold
COc1ccc(NC(=O)CNS(=O)(=O)c2ccc(Cl)cc2)cc1OC	-31	6	-1.3	i	131	72	1
O=C1CC(Nc2ccccc2)C(=O)N1Cc1ccccc1 (stereo unspecified)	-9	-2	-0.9	i	96	102	0.95
CN1CC(=O)N(CC(=O)Nc2ccc3c(c2)CCC3)C1=O	25	9	.	i	104	137	1
CC(=O)Nc1sc2c(c1C(c1ccccc1)N1CCOCC1)CCCC2 (stereo unspecified)	0	-2	-0.8	.	98	52	.
O=C(CSCc1ccccc1Br)N/N=C/c1ccc(OCC(=O)N2CCCCC2)cc1	.	4	-2.0	i	95	.	0.86
CCCC(=O)Nc1ccc(C(=O)N/N=C/c2ccc([N+](=O)[O-])o2)cc1	-81	-1	-0.7	i	32	22	0.65
CCc1c(O)nc(SCC(=O)Nc2ccc(C)cc2)n(C2CCCCC2)c1=O	.	-10	-2.3	i	95	.	0.93
CC(C)(C)NS(=O)(=O)c1ccc(CCC(=O)N2CCCCC2)cc1	-13	-5	-2.2	i	105	63	0.92
O=C(O)/C=C/c1ccc2c(-c3ccccc3)onc2c1	8	34	-2.7	i	54	46	1
COc1ccccc1C(C)NC(=O)CCOc1cccc(C)c1 (stereo unspecified)	8	2	.	i	103	104	1
COc1ccccc1NS(=O)(=O)c1cc(NC(=O)CNC(=O)c2ccccc2)ccc1C	-15	-16	-2.0	i	53	77	0.97
O=C(Nc1ccc([N+](=O)[O-])cn1)C1CCCCC1	-6	-6	-0.3	i	111	106	0.95

Next section.
canonical_smiles	INS promoter inh	PKD1 kinase inh	GALR2 ag	HSV augment	RGS16-Gao HTS	INS promoter inh cell count	HSV augment primary fold
CC(C)CNS(=O)(=O)c1ccc(CCC(=O)N2CCC(C(N)=O)CC2)cc1	.	-2	.	i	97	.	1.1
Cc1csc(C(=O)O)c1-c1c(C)csc1C(=O)O	54	0	-1.7	i	106	144	1
Cc1cccc(NCC(O)Cn2cnc3c2c(=O)n(C)c(=O)n3C)c1 (stereo unspecified)	-27	-3	-0.9	i	96	127	1
Cc1cccc(NC(=O)c2onc3c2CCCC3)n1	.	1	-0.1	i	103	.	1
O=C(CSc1nc2ccccc2o1)NC(=O)NCc1ccccc1	-56	-11	-1.1	i	97	60	0.96
COc1ccc(Cl)cc1NC(=S)NCCSc1ccc(C)cc1	.	0	-1.3	i	101	.	0.85
CN(CCNC(=O)c1ccc(/C=N/O)nc1)Cc1ccccc1	.	-5	0.1	i	97	.	0.95
OC(COCCC12CC3CC(CC(C3)C1)C2)CN1CCCCC1 (stereo unspecified)	28	1	-2.3	i	104	113	0.98
CCN(CC)CCCNC(=O)c1cn(CC)c2ccc(S(=O)(=O)N3CCc4ccccc4C3)cc2c1=O	21	7	.	.	99	157	.
CC(=O)Nc1ccc(Oc2cncc(Cl)c2)nc1	.	.	.	i	97	.	0.94
COc1cc(/C=N\NC(=O)C2COc3ccccc3O2)cc(OC)c1O (stereo unspecified)	.	.	.	i	102	.	0.92
O=C(CNC(=O)c1ccco1)Nc1ccc(S(=O)(=O)N2CCCC2)cc1	0	-3	-1.3	i	-10	113	0.86

Other compounds
canonical_smiles	INS promoter inh	PKD1 kinase inh	GALR2 ag	HSV augment	RGS16-Gao HTS	INS promoter inh cell count	HSV augment primary fold
O=C(CCCN1C(=O)c2ccccc2C1=O)Nc1cccc(S(=O)(=O)NC2=NCCC2)c1	.	-1	.	i	101	.	1.1
Cc1ccccc1NS(=O)(=O)c1ccc(OCC(=O)NCc2ccccn2)cc1	.	5	.	i	100	.	1.1
O=c1cc(-c2ccccc2)nc(N2CCN(Cc3ccc4c(c3)OCO4)CC2)[nH]1	i	-11	-1.9	i	104	50	0.74
NC(=O)C1CCN(CC(=O)NC(=O)NC2CCCC2)CC1	.	-1	.	i	104	.	0.86
O=C(NCc1ccncc1)c1nc(-c2ccc(C(F)(F)F)cc2)no1	.	-8	.	i	99	.	0.98
C/C(=N\Nc1nc2ccccc2nc1C)c1ccccc1O	.	.	.	i	93	.	1.3
O=C1C(=O)N(CCO)C(c2ccccc2)/C1=C(\O)c1ccccc1 (stereo unspecified)	.	6	-2.1	i	105	.	0.89
CCCc1nc2c(c(=O)c3ccccc3n2C)c(=O)n1-c1ccc(F)cc1	-52	-5	-0.7	i	104	93	0.88
Cc1ccccc1NC(=O)C1CCN(c2cnccn2)CC1	6	4	0.0	i	101	228	0.68
CSCCC(NC(=O)c1ccccc1Br)C(=O)Nc1ccc(C)cc1 (stereo unspecified)	.	2	-0.4	i	101	.	0.91
CCOC(=O)CSc1nc(=O)n2ccc(C)cc2n1	-46	-5	.	i	98	92	0.83
CC(=O)c1ccc(NC(=O)CN2C(=O)/C(=C/C(C)=C/c3ccccc3)SC2=S)cc1	12	-1	-1.9	i	102	125	1
COC(=O)c1ccccc1NC(=O)C1CC(=O)N(C2CCCCC2)C1 (stereo unspecified)	.	-10	-1.0	i	81	.	0.97
NC(N)=NS(=O)(=O)c1ccc(N/C=C\C(=O)c2ccncc2)cc1	.	-10	.	i	89	.	0.95

Profiles from above. Order of values: INS promoter inh	PKD1 kinase inh	GALR2 ag	HSV augment	RGS16-Gao HTS	INS promoter inh cell count	HSV augment primary fold
Cc1ccccc1NS(=O)(=O)c1ccc(OCC(=O)NCc2ccccn2)cc1 is listed as .	5	.	i	100	.	1.1
CC(=O)c1ccc(NC(=O)CN2C(=O)/C(=C/C(C)=C/c3ccccc3)SC2=S)cc1 is listed as 12	-1	-1.9	i	102	125	1
NC(=O)C1CCN(CC(=O)NC(=O)NC2CCCC2)CC1 is listed as .	-1	.	i	104	.	0.86
O=c1cc(-c2ccccc2)nc(N2CCN(Cc3ccc4c(c3)OCO4)CC2)[nH]1 is listed as i	-11	-1.9	i	104	50	0.74
CCOC(=O)CSc1nc(=O)n2ccc(C)cc2n1 is listed as -46	-5	.	i	98	92	0.83
